Screens deposited in PubChem BioAssay by National Center for Advancing Translational Sciences (NCATS).
TRPML1 inh: inhibitors of human TRPML1 channel; Q9GZU1; TRPML1-inducible cells, Ca2+ dye fluorescence, FDSS; hits give low values; inhibition of EC80 agonist-evoked calcium signal; activity change, negative = inhibition, % (no concentration beside the values); 390,000 tested, 0.02% active; in the data active means activity change below about -50%; inconclusive means about -30% to -50%; inactive means above about -30%;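 note: stimulus is agonist 54-4 at its EC80 concentration; % is set by controls: 0 for no effect and ±100 for the full control effect; compound concentration not given in the record; the text of the record puts the active cut at -80%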
Target sequence (Q9GZU1 whole entry, looked up): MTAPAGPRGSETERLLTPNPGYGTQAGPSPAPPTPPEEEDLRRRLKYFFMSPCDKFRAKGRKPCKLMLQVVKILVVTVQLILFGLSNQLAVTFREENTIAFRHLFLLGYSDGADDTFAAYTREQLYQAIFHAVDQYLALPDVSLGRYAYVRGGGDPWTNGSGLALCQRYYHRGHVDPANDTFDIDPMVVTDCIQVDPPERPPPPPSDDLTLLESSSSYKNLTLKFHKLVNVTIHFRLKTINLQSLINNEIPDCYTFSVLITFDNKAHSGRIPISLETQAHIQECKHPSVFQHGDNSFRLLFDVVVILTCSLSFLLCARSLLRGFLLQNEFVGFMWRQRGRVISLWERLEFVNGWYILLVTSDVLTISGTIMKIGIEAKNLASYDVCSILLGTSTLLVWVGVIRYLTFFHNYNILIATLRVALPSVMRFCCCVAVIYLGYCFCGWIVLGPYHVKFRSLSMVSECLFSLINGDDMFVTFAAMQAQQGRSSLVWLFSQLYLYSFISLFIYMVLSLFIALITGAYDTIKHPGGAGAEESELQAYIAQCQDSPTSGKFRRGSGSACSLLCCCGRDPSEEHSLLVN
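Calcium fluorescence in TRPML1-DL cells induced overnight with Tet: a 110 s read after compound pin addition, then a 110 s antagonist read after challenge with 54-4 at 4 uM final (EC80).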
D2 ag: human D2 receptor agonism in beta-arrestin assay | activation, % (concentration not given with the values) | 360,000 tested, 0.084% active | P14416 | DiscoveRx PathHunter D2 beta-arrestin, luminescence, 90 min; 100% = 57 uM dopamine signal; in the data active = activation above about 40%; inconclusive = about 15% to 40%; inactive = below about 15%; note: compound concentration not given in the record; the text of the record calls up to 30% inactive
Target sequence (P14416 whole entry, looked up): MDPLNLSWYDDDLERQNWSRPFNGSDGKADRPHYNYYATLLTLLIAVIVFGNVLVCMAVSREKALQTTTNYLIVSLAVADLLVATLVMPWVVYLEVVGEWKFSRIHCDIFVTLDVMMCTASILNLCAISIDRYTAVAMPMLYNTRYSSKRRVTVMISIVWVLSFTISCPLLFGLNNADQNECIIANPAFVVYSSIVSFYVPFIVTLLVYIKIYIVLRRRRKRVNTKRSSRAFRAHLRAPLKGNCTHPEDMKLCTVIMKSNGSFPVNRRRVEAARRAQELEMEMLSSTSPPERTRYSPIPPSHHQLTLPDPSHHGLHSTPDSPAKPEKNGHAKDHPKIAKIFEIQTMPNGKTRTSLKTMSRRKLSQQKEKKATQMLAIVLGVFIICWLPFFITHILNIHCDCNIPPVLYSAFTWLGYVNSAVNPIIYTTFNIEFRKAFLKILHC
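Agonist mode: compounds alone added to overnight-plated D2 PathHunter cells for 90 min at 37 C, with 57 uM final dopamine (EC100) defining full response. Beta-arrestin recruitment detected by chemiluminescent reagent, read after 1 h at ambient temperature.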
TRPML1 agonist: agonists of human TRPML1 channel; Q9GZU1; TRPML1-expressing cells, Ca2+ dye fluorescence, FDSS; host cell line not named in the record; reference of the full effect not given here; activation, % (concentration not given with the values); 410,000 tested, 0.12% active; AID 624414; in the data active = activation above about 50%; inconclusive = about 30% to 50%; inactive = below about 30%; note: 0% is about no effect; the text of the record puts the active cut at 80%
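Cells: TRPML1-DL, 1X Tet inducer, ~16 h at 37 degrees C/5% CO2. Dye: ABD Ca8 no-wash + quencher, 45-90 min RT. Read: 10 s baseline, compound add, 110 s agonist phase; 54-4 EC80 (4uM final), 110 s antagonist phase.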
Six1-Eya2 inh: Six1/Eya2 interaction inhibition | Q15475+O00167 | AlphaScreen GST-Six1/His-Eya2 binding, biochemical; hits give low values; control for the full effect not named in the record | activity change, % (test concentration not listed) | 360,000 tested, 0.56% active; in the data active = activity change below about -65%; inconclusive = about -30% to -65%; inactive = above about -30%; note: % is set by controls: 0 for no effect and ±100 for the full control effect; compound concentration not given in the record
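Six1/Eya2 binding was read as AlphaScreen signal after compounds were pinned into GST-Six1 plus His-tagged Eya2 (5X stock 250/500 nM) in pH 8.0 Tris/NaCl/TCEP buffer, beads added, then incubated 1 h, 37 C, dark.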
PINK1 modulator: modulators of PINK1 expression | PINK1 immunofluorescence, high-content cytometry, 24 h | Potency, µM (doses to about 76.6 µM), for the others: top-dose activation (PINK1 increase), hits mostly activators | 410,000 tested, 0.2% active | AID 624263; active = well fitted activation curve with a large enough effect; inconclusive = small, poorly fitted or top-dose-only effect; inactive = flat fitted curve, though single readings scatter; cell line not stated here;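 note: potency is the fitted concentration of half-maximal effect; % of control where 0% means no effect; nearly all actives have a fitted effect of over 65% in size; a mitochondrial uncoupler was the plate control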
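Decision-based qHTS: stable cells, 24 h exposure to five compound concentrations, CCCP as control. Fixed cells stained for PINK1 plus nuclear, mitochondrial and cell markers, cytometer read.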
CtBP-E1A blk: blocks the CtBP interaction with E1A. activity change, % (test concentration not listed). AID 651724. 340,000 tested, 0.49% active. AlphaScreen GST-E1A/His-CtBP binding, 1536-well; hits give low values; control for the full effect not named in the record; in the data active means activity change below about -65%; inconclusive means about -30% to -65%; inactive means above about -30%; note: % is set by controls: 0 for no effect and ±100 for the full control effect; compound concentration not given in the record
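AlphaScreen with 125 nM GST-E1A and 125 nM His-CtBP (5X stocks) in Tris pH 8.0, 300 mM NaCl, BSA, Tween 20, TCEP. Compounds preincubated 2 h at 37 deg C, then glutathione donor/nickel acceptor beads added for 1 h at 37 deg C in dark.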
Numbers without * were called inactive; ? = inconclusive; nt = not tested or not shown; & = joins results of further samples; [ ] = dose if it differs, or a comment. An unsorted share of the library; overall some 1% were active at least once.

Below each SMILES: TRPML1 agonist	Six1-Eya2 inh	CtBP-E1A blk	D2 ag	PINK1 modulator	TRPML1 inh
- O=C(CN1C(=O)S/C(=C\c2ccccc2)C1=O)NNC(=O)c1ccccc1O
 : -0.2	-8	0	-4.0	0.1%	8
- C=CCN1C(=O)N(c2ccc(F)cc2)C(=O)C1CC(=O)Nc1ccc(Cl)cc1 (configuration not stated)
 : 0.4	6	8	-1.5	0.1%	-12
- Cc1nn(C)cc1C1C(C#N)=C(N)N(c2ccc(F)c([N+](=O)[O-])c2)C2=C1C(=O)CCC2 (configuration not stated)
 : 0.7	4	-3	0.8	-0.4%	1
- COCCNC(=O)c1onc(CSc2ccccc2C)c1C(=O)O
 : -0.9	5	6	1.0	1.2%	-4
- O=C(c1cc(-c2ccncc2)nc2ccc(Br)cc12)N1CCN(c2ccccn2)CC1
 : -0.3	-1	3	0.3	-1.0%	10
- CSc1nc(N)nc(SC2C=CCCC2)c1C#N (configuration not stated)
 : 0.8	-1	10	1.3	nt	1
- N#Cc1ccc(C(=O)NCCCSc2ccccc2)cc1
 : 0.2	-1	0	-2.8	1.2%	-1
- COc1cccc(Nc2nc(-c3cccs3)nc3ccccc23)c1
 : -0.4	2	8	0.4	25%	-5
- CC1CCN(c2c(NCC3CCC(C(=O)NCc4ccccc4)CC3)c(=O)c2=O)CC1 (configuration not stated)
 : -0.5	-12	-7	-5.3	9.5%	6
- COC(=O)Nc1c(C(=O)OC)cc(OC)c(OC)c1OC
 : -1.5	1	1	-2.3	0.0%	-4
- COc1cc(C(=O)NCC2(c3ccccc3)CCCC2)cc(OC)c1OC
 : 0.4	-3	7	-4.4	1.9%	6
- CCOc1ccc(C(CC(=O)O)NC(=O)COc2ccccc2)cc1OC (configuration not stated)
 : 0.7	0	14	0.6	-0.9%	-8
- O=c1[nH]c(-c2ccc(O)cc2)nc2scc(-c3cccs3)c12
 : nt	-7	-2	6.4	0.7%	nt
- O=C(Oc1ccc[nH]c1=O)c1cccc(Cl)c1
 : -0.1	4	nt	-2.6	5.8%	16
- Cc1cc(-c2ccc(C)c(S(=O)(=O)NCc3ccc(Cl)cc3)c2)on1
 : -0.6	nt	nt	nt	-0.3%	-17
- O=C(C1CCN(S(=O)(=O)c2cccc3cccnc23)CC1)N1CCN(c2ccc(Cl)cc2)CC1
 : 0.7	-6	-2	0.5	1.6%	-17
- CCOc1ccc(NC(=O)Nc2cccs2)cc1
 : 3.1	-7	-17	-1.1	-1.0%	-2
- O=C(COC(=O)c1ccccn1)Nc1nccs1
 : -0.5	1	7	-1.0	1.3%	-7
- CC1CCN(CC(=O)N(C)c2c(N)n(Cc3ccccc3)c(=O)[nH]c2=O)CC1
 : 2.4	3	2	-2.9	-1.5%	-13
- COc1cc(CN2CCCC(CO)(Cc3ccccc3C)C2)cc2c1OCO2 (configuration not stated)
 : -1.0	-4	-10	-1.8	7.2%	1
- Cc1ccc(C2C3=C(CC(C)(C)CC3=O)NC3=C2C(=O)CC(C)(C)C3)o1
 : 0.9	4	-2	-1.6	2.1%	9
- COc1ccc(NC(=O)Nc2cnccn2)cc1OC
 : -0.3	3	-2	4.3	-1.0%	18
- CC1(C)CNC(=O)c2sc(NC(=O)c3ccccc3)nc2C1
 : 3.1	2	0	0.9	0.2%	2
- CCCNC(=O)c1ccc(Cn2c(SCC(=O)NC(C)C)nc3ccccc3c2=O)cc1
 : 0.0	nt	nt	nt	-3.9%	-4
- CC1CCN(S(=O)(=O)c2ccc3c(ccn3CC(=O)NCc3ccccc3F)c2)CC1
 : 0.6	nt	nt	nt	2.7%	4
- Cc1nn(C(C)C(=O)NCc2ccccc2F)c(=O)c2nn(-c3ccccc3)c(C)c12 (configuration not stated)
 : -0.7	2	1	-1.7	-0.9%	28
- Cc1ccc(OCC(=O)N(C)CC(=O)Nc2ccc(F)c(F)c2F)cc1
 : -0.3	28	-10	-3.0	-1.3%	3
- CCCCSc1ccc(NC(=O)c2cccnc2)cc1
 : -0.2	-7	-14	1.9	5.4%[38.3 µM]	8
- CC1(C(=O)O)CCC(C(=O)N2CCOCC2)C1(C)C (configuration not stated)
 : -0.3	2	3	-5.7	-1.2%	-6
- Cc1c([N+](=O)[O-])cc(C(=O)Oc2cccc(C(=S)N3CCOCC3)c2)cc1[N+](=O)[O-]
 : 3.4	-9	-18	-2.7	0.3%	1
- COc1ccc(C2CC(=O)Oc3c(C(CCN4CCOCC4)c4cc(OC)c(OC)c(OC)c4)c(OC)cc(OC)c32)cc1 (configuration not stated)
 : 2.0&0.1	-16	-20	-1.9	3.1%	2&-2
- CCOC(=O)C1CCN(C(c2cccc(F)c2)c2sc3nc(C)nn3c2O)CC1 (configuration not stated)
 : -0.3	0	2	4.2	0.2%	-12
- S=c1[nH]nc(-c2cc(-c3ccco3)[nH]n2)n1-c1ccccc1Cl
 : 0.1	-9	-9	-2.5	1.1%	-5
- CCN1CCCc2cc(CN(CCN3CCOCC3)C(=S)Nc3cc(F)cc(F)c3)ccc21
 : 0.7	?	nt	-3.1	0.5%	-2
- Cc1ccc(N/N=C(\C#N)C(N)=S)cc1C
 : 1.6	-6	nt	-5.8	0.3%	-7
- Cc1ccc(CN(Cc2ccco2)C(=O)c2ccc(OCC(C)C)cc2)cc1
 : 0.8	nt	nt	nt	27%	-8
- CCc1ccc(NC(=O)CSc2nc(-c3ccccc3)c(C#N)c(=O)[nH]2)cc1
 : 0.5	nt	nt	nt	2.5%	-16
- COc1cccc(C2C(C(=O)c3sc(C)nc3C)=C(O)C(=O)N2CCN2CCOCC2)c1OC (configuration not stated)
 : -0.3	11	0	1.0	-2.3%	-12
- Cc1cccc(S(=O)(=O)Nc2cccc3c2C(=O)c2ccccc2-3)c1
 : 8.4	-19	-9	-11	-0.3%	7
- Cc1ccc(C(=O)O/N=C(\N)c2cccnc2)cc1[N+](=O)[O-]
 : 0.1	9	-8	7.3	1.2%	-2

Exported as tab-separated lines: entries from further up
mol	TRPML1 agonist	Six1-Eya2 inh	CtBP-E1A blk	D2 ag	PINK1 modulator	TRPML1 inh
Cc1cccc(S(=O)(=O)Nc2cccc3c2C(=O)c2ccccc2-3)c1	8.4	-19	-9	-11	-0.3%	7
Cc1ccc(C(=O)O/N=C(\N)c2cccnc2)cc1[N+](=O)[O-]	0.1	9	-8	7.3	1.2%	-2

Next entries follow.
Below each SMILES: TRPML1 agonist	Six1-Eya2 inh	CtBP-E1A blk	D2 ag	PINK1 modulator	TRPML1 inh
- COc1ccccc1C(=O)NC(CCSC)C(=O)N1CCN(C/C=C/c2ccccc2)CC1 (configuration not stated)
 : -0.7	-17	-1	-4.6	0.8%	-9
- COc1ccc2ccccc2c1C1CC(=O)N2CN(Cc3ccco3)CSC2=C1C#N (configuration not stated)
 : 0.3	0	-3	-3.3	4.8%	-2
- COc1ccc2c(c1)[C@H]1[C@H](CO2)[C@H](c2ccccc2)[C@]2(C)C(=O)Nc3cc(F)c(F)cc3C(=O)N12
 : -0.1	-8	nt	-0.9	2.9%	5
- NNC(=O)CSc1c(-c2ccccc2)c2cc(Cl)ccc2[nH]c1=O
 : -0.6	0	-8	-1.8	-0.3%	-9
- O=C(CSc1nc2c(sc3ccccc32)c(=O)n1CCCN1CCCC1)NCc1ccccc1
 : 2.3	5	-25	3.2	-0.3%	4
- CC(=O)Nc1cccc(NC(=O)CSc2nc(=O)n(CCCN3CCOCC3)c3c2CCC3)c1
 : 0.1	0	-13	2.9	-1.6%	39
- CC(C)(C)c1cc(CN2CCN(CCO)CC2)cc(C(C)(C)C)c1O
 : 0.9	7	3	2.3	1.0%[38.3 µM]	3
- Cc1ccc2[nH]cc(CCNC(=O)CN3C(=O)c4ccccc4C3=O)c2c1
 : 4.7	1	1	-1.2	1.0%	10
- C#CCOc1ccc(/C=C2/C(=O)NN(c3ccc(F)cc3)C2=O)cc1OC
 : 0.5	2	3	4.2	1.1%	-7
- CCOC(=O)C1CCN(C(=O)CSc2n[nH]c(-c3ccccc3Cl)n2)CC1
 : 0.2	nt	nt	nt	0.0%	-27
- CC1CCC(NC(=O)C(NS(=O)(=O)c2cccc3nsnc23)C(C)C)CC1 (configuration not stated)
 : 0.5	3	1	-1.0	-0.7%	3
- Cc1ccc(CNC(=O)c2ccccc2NC(=O)C2=CSCCO2)cc1
 : 1.4	-4	0	-5.3	-1.5%	0
- COc1cccc(C(=O)Nc2ccccc2-c2ccccc2)c1
 : 3.9	12	9	-4.5	0.3%	17
- O=C(/C=C\c1ccc(-c2ccccc2)o1)c1ccccc1
 : 1.2	12	0	-3.8	13%	-6
- O=C(COC(=O)c1cc(Cl)nc2ccccc12)c1ccc(Cl)cc1
 : -0.5	42	9	0.0	3.2%	-7
- CCOC(=O)c1[nH]c(C)c(C(=O)Nc2cc(OC)ccc2OC)c1C
 : -0.2	-15	-17	-0.3	17%[38.3 µM]	5
- O=C(NCCCN1CCOCC1)c1ccccc1NS(=O)(=O)c1cc([N+](=O)[O-])ccc1Cl
 : -0.3	-3	0	0.7	0.0%	-4
- COc1ccccc1Nc1cc(C(=O)NCc2cccnc2)c2ccccc2n1
 : -0.8	3	-3	-3.2	4.8%	-17
- NC(=O)C1CCN(c2nnnn2-c2ccccc2)CC1
 : -0.6	-4	6	-3.2	6.0%	11
- O=C1N=C(N2CCOCC2)S/C1=C\c1ccccc1OS(=O)(=O)c1ccccc1
 : 1.4	3	nt	-4.8	4.6%	15
- O=C(Nc1c2c(nn1-c1ccc(Cl)cc1)CS(=O)(=O)C2)c1ccc2c(c1)OCO2
 : 0.2	-2	3	-3.5	8.3%[38.3 µM]	-2
- Nc1nnc2cc(F)ccc2n1
 : -0.2	-7	1	-1.8	0.5%	5
- Cc1cc(OC(C)C(=O)N(Cc2ccc(N(C)C)cc2)Cc2ccco2)ccc1Cl (configuration not stated)
 : 2.2	nt	nt	nt	2.2%	10
- CC1=CCC2C(=O)N(c3cccc(C(=O)NC(C)c4ccccc4)c3)C(=O)C2C1 (configuration not stated)
 : -0.8	-5	-10	-0.9	1.0%	-3
- CCN(C(=O)CSc1nc2nc(C)cc(C)n2n1)C1CCS(=O)(=O)C1 (configuration not stated)
 : 0.7	-3	-1	-0.5	0.4%	2
- Cc1cc(C)c2nc(NC(=O)[C@@H](NC(=O)c3cccc(S(=O)(=O)N4CCOCC4)c3)C(C)C)sc2c1
 : 0.5	-9	-10	-3.9	11%	12
- CCCN(CCC)S(=O)(=O)c1cc(Br)cc2c1N(C(=O)CC)CC2
 : 2.0	21	0	-1.7	5.1%	17
- O=C(NNC1=NS(=O)(=O)c2ccccc21)c1cccc([N+](=O)[O-])c1
 : -0.9	-6	nt	4.5	-1.1%	1
- COc1ccc(/C=N/NC(=O)c2ccc(Br)cc2)cc1Cn1cc(Cl)cn1
 : -0.3	-27	-17	8.6	7.8%	3
- CCN(CC)C(=O)Cn1cc(C(=O)C(=O)N2CCN(C)CC2)c2ccccc21
 : -0.2	2	-9	-2.4	0.6%	-3
- Cc1ccc(C)c(NC(=O)CN(C)C(C)C(=O)N2CC(C)CC(C)C2)c1 (configuration not stated)
 : -0.3	-6	-1	-2.5	-0.6%	36
